Mtb hypoxia inh – inhibitors of hypoxia-regulated fluorescent reporter in Mycobacterium tuberculosis | M. tuberculosis hypoxia-regulated fluorescent reporter, fluorescence | fluorescence inhibition, % (test concentration not listed) | hit rate 0.1% among 300,000;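 active = 35 to 45% if threefold the growth effect, above 45% if 1.5-fold the growth effect; inactive = the rest, general growth blockers included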;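 note: wells of about 50 µL received 100 nL stock; 0% = vehicle wells and 100% = reference inhibitor wells; whole bacteria with a GFP reporter of the hypoxia response; strong numbers were not always called active; many hits fall short of the cut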
PrP UTR inh – suppresses PrP 5' UTR mRNA reporter expression; AID 488862; cell-based PrP 5' UTR mRNA reporter, plate reader; hit rate 0.35% among 340,000; inhibition, % (no concentration beside the values);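 active = every replicate at 50% or more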;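 note: 0 = median of the neutral control wells; tested in H4 reporter cells; numbers are from one replicate; inactives centre near -14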
Autofluor counter – flagged as autofluorescent in microsphere protease counterscreen; compound autofluorescence counterscreen, microsphere flow cytometry; hits give high values; fluorescence intensity (concentration not given with the values); hit rate 3.1% among 360,000; AID 624483;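 active = at least 3 SD above the mean of all compounds, about 16000 in these data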;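 note: 100 nL of 1 mM stock went into each well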
Sa RN4220 lethal – S. aureus RN4220 growth inhibition; OD600, 16 h; inhibition, % (no concentration beside the values); hit rate 0.33% among 330,000;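 active = z-score of -3 or lower and OD600 up to 0.18 on both plates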;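 note: plate controls were untreated cells for no effect and reference antibiotic for full effect; stock transfer was 100 nL into about 80 µL; one replicate is shown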
BJeLR lethal – kills HRASV12-expressing BJeLR cells; hit rate 0.17% among 300,000; AID 1554; inhibition, % (test concentration not listed); BJeLR (HRASV12) viability, CellTiter-Glo ATP luminescence, 48 h; reference of the scale not given here;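 active = replicate mean above 50%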;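 note: 50 nL library stock added to about 25 µL; numbers are from one replicate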
Sa ugtP lethal – growth inhibition of S. aureus ugtP deletion strain; S. aureus RN4220 ugtP deletion, OD600 growth, 16 h; some inactives read as strong as hits; hit rate 0.54% among 330,000; growth inhibition, % (concentration not given with the values);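 active = z-score under -3 and OD600 up to 0.15 on both plates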;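 note: plate controls were untreated wells for no effect and antibiotic for full effect; wells of about 80 µL received 100 nL stock; the first replicate is given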
Mtb hypoxia inh growth – further read-out of Mtb hypoxia inh, marked with its call; growth inhibition, %; measured here: M. tuberculosis growth (absorbance);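 0% = vehicle and 100% = reference antibiotic; read after six days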
* hit, by the source's call; nt = not tested or not shown.

SMILES | Mtb hypoxia inh | Mtb hypoxia inh growth | PrP UTR inh | Autofluor counter | Sa RN4220 lethal | BJeLR lethal | Sa ugtP lethal
CCn1cnc2c1c(=O)n(CC(=O)OC(C)C(N)=O)c(=O)n2Cc1ccccc1 (stereo not drawn) | 2 | -6 | -3 | 4301 | 0.4 | 5 | -3
CCN(C(=S)NC(=O)Cc1ccc(OC)cc1)c1ccccc1 | 14 | 8 | -9 | 3696 | 1.9 | 2 | 0
CC(Oc1ccc(F)cc1F)C(=O)NNC(=S)NCC1CCCO1 (stereo not drawn) | 10 | 7 | -27 | 5807 | -1.8 | -4 | 10
Cc1ccc(/C=N/n2c(-c3ccccc3)n[nH]c2=S)cc1 | nt | nt | -12 | 3033 | nt | -11 | nt
CC1CCN(Cc2c(C(=O)N/N=C/c3ccc(C(C)(C)C)cc3)nnn2-c2nonc2N)CC1 | nt | nt | -11 | 4539 | nt | -2 | nt
c1ccc(-c2ccc(CN3CC4C(c5ccccc5)C5(c6ccccc6)CC4(C5)C3c3ccccc3)cc2)cc1 (stereo not drawn) | 3 | 5 | nt | nt | -3.4 | nt | 0
O=C(COC(=O)C1(c2ccc(F)cc2)CCCC1)N1CCNC1=O | 9 | 9 | -10 | 9217 | 8.6 | nt | 0
O=C(NN1C(=O)C2C(c3ccccc3)C=CC(c3ccccc3)C2C1=O)c1cccc(Br)c1 (stereo not drawn) | 9 | 1 | -14 | 2082 | -10 | 9 | -15
COc1cc2c(CCNC(C)=O)c[nH]c2cc1Cl | 5 | 2 | -18 | 5862 | 5.3 | nt | -3
O=c1[nH]cnc2sc3c(c12)CCC3 | 10 | 5 | -29 | 4236 | 2.3 | 2 | -2
COc1ccc(NC(=O)COC(=O)C(CC(C)C)N2C(=O)C3CC=CCC3C2=O)cc1Cl (stereo not drawn) | 11 | 9 | -24 | 10925 | -0.9 | -4 | 11
CCOC(=O)C1=C(C)Nc2nnnn2C1c1ccccc1Cl (stereo not drawn) | nt | nt | -45 | 3626 | -6.4 | nt | -6
Cn1ncc2c(Nc3cccc([N+](=O)[O-])c3)ncnc21 | -4 | -7 | -1 | 3740 | 9.9 | 3 | 14
O=C(CCl)N(c1ccccc1)c1ccccc1 | nt | nt | -8 | 4333 | -0.6 | 21 | 13
CCCCCCCNC(=O)C1(CC2CC(c3cccc(Br)c3)=NO2)CCN(C(=O)c2cc(OCC)c(OCC)c(OCC)c2)CC1 (stereo not drawn) | 3 | 15 | 4 | 3972 | 4.2 | 0 | 4
CCOC(=O)N1CCN(c2cc(=O)n(-c3ccccc3C)c(=O)[nH]2)CC1 | 6 | 4 | -11 | 2092 | 1.9 | -7 | 8
CCC(N)Cc1c[nH]c2ccccc12 (stereo not drawn) | nt | nt | -19 | 3887 | nt | 17 | nt
CC(C)CNC(=O)c1ccc(Cl)c(NC(=O)COc2ccccc2)c1 | 7 | 0 | nt | nt | 7.7 | 3 | 4
CCn1nc(C)c(C(=O)Nc2cc(Oc3ccc(Cl)cc3)cc([N+](=O)[O-])c2)c1C | 9 | 5 | -11 | 19896* | 2.3 | -4 | -1
O=C(Cn1nnc(-c2ccccc2Cl)n1)N/N=C/c1ccc(-c2cccc(Cl)c2)o1 | nt | nt | -40 | 2519 | nt | 3 | nt
Cc1cccc(CC(C)NC(=O)c2cc(COc3ccc(C)c(C)c3)on2)n1 (stereo not drawn) | 0 | 3 | -41 | 4092 | 0.8 | 0 | -3
O=C(NC(=S)Nc1ccc2oc(=O)ccc2c1)c1ccc(-c2cccc(Cl)c2Cl)o1 | 8 | -2 | nt | nt | 6.5 | 2 | -11
Oc1c(I)cc(I)c2cccnc12 | 7 | 4 | -13 | 5783 | 95* | 4 | 96*
CCc1ccccc1NC(=O)CCS(=O)(=O)c1ccc(C)cc1 | -6 | -5 | -22 | 3856 | -2.8 | 3 | -7
O=c1[nH][nH]c(=O)c2c(NS(=O)(=O)c3ccccc3)cccc12 | -2 | -2 | -14 | 3834 | 6.1 | 7 | -7
OCC1CCCCN1CCNCc1cn[nH]c1-c1cccc2ccccc12 (stereo not drawn) | 0 | 12 | -12 | 6275 | 2.0 | 1 | 6
CCOC(=O)c1c(NC(=O)CCN2C(=O)c3ccccc3C2=O)sc(C(=O)OC(C)C)c1C | 4 | 1 | -2 | 17126* | 2.3 | -1 | -6
CC(=O)Nc1cc([N+](=O)[O-])ccc1N1CCOCC1 | 13 | 6 | -12 | 2492 | 6.4 | 1 | -3
CC1Cc2ccccc2N1Cc1nc2cc(Cl)ccc2c(=O)[nH]1 (stereo not drawn) | nt | nt | -12 | 3046 | -4.0 | 1 | -16
O=C(CCc1nnc(CCCCc2ccccc2)o1)NCc1cc(F)ccc1F | 9 | 2 | -18 | 3090 | 4.6 | -2 | 10
Cc1cc(C)c(S(=O)(=O)O)c(C)n1 | 15 | 13 | -4 | 4093 | 2.3 | -1 | 1
COc1ccc(CCNC(=O)COC(=O)CCC(=O)c2ccc(F)cc2)cc1OC | 10 | 13 | -13 | 4360 | 1.3 | -10 | 8
COc1cc(-c2nnc(NC(=O)CS(=O)(=O)c3ccc(F)cc3)o2)cc(OC)c1OC | 12 | 0 | -21 | 7389 | 8.1 | -9 | -3
CC1CC(C)CN(CCCn2c(=S)[nH]c3ccccc3c2=O)C1 (stereo not drawn) | nt | nt | 1 | 2324 | -0.6 | -1 | -1
CCOC(=O)c1cc2cc(C)ccc2[nH]1 | 10 | 9 | -61 | 4368 | 7.6 | 2 | -1
COc1ccc(Sc2nc3ccccc3n3c(C(F)(F)F)nnc23)cc1 | -10 | -3 | -15 | 5907 | 0.2 | 2 | 1
CN(C)c1ccc(Nc2ncnc3ccc(Br)cc23)cc1 | nt | nt | -5 | 3381 | 7.0 | 2 | 5
Cc1ccccc1OCc1ccc(C(=O)N2CCOCC2)o1 | -2 | 9 | -6 | 5416 | 4.0 | -8 | 7
COc1cc(C(=S)N2CCCC2)cc(OC)c1O | 0 | 9 | -16 | 20756* | 5.3 | nt | -5
CCc1nnc(NC(=O)c2ccncc2)s1 | nt | nt | -10 | 4484 | -0.4 | 3 | 3
COc1ccc(OC)c(NC(=O)CCn2c(=S)[nH]c3ccccc3c2=O)c1 | 4 | 13 | -6 | 5320 | 1.0 | -1 | 0
COc1ccc(N2CCN(C(=O)c3ccc(S(=O)(=O)NCc4ccco4)cc3)CC2)cc1 | 7 | 5 | -5 | 6782 | 7.7 | nt | 18
Cc1csc(NC(=O)CCc2c(C)nc3cc(-c4cccc(F)c4)nn3c2C)n1 | -11 | 7 | 7 | 6113 | 2.5 | -9 | -6
C=CCNC(=S)N=c1ccccn1CC | -15 | -13 | nt | nt | 5.1 | nt | 7
O=C(NC1CCCCCCC1)c1ccco1 | nt | nt | -11 | 8001 | 3.5 | 6 | -4
O=C(CN1C2=NCCN2c2ccccc21)N1CCOCC1 | nt | nt | nt | nt | 1.9 | -13 | -2
COCCn1c(=NC(=O)CSC(C)=O)sc2cc(OC)ccc21 | 6 | 10 | -11 | 5517 | -13 | -6 | -1
CC(OC(=O)c1ccc(NC(=O)CC#N)cc1)C(=O)Nc1ccc2c(c1)OCCO2 (stereo not drawn) | 2 | 3 | -14 | nt | -0.3 | 6 | 1
Cc1ccc2nc(Cl)c(/C=N/NC(=O)CN3CCOCC3)cc2c1 | nt | nt | -12 | 4067 | nt | -3 | nt
O=[N+]([O-])c1cccc(N/N=C/c2cc([N+](=O)[O-])ccc2O)c1 | nt | nt | -13 | 3224 | nt | 8 | nt
CN(C1CCS(=O)(=O)C1)S(=O)(=O)c1ccc(N2CCCC2=O)cc1 (stereo not drawn) | 12 | 4 | -24 | 5786 | 2.0 | 4 | 5
Cc1cc(C)c2c(n1)SCC(=O)N2CC(=O)Nc1cc(F)ccc1F | 5 | 6 | 1 | 5853 | 3.6 | 3 | -3
CN(C)c1cc(O)c(C(=S)Nc2ccccc2)c(N(C)C)c1 | 6 | 4 | -13 | 8398 | -13 | -1 | 69
O=C(Nc1nc(-c2ccncc2)cs1)c1ccc(S(=O)(=O)N2CCOCC2)cc1 | -1 | 4 | -8 | 9990 | 4.9 | -11 | -5
CC(CN(C)Cc1ccccc1)OC(=O)c1ccc2c(c1)OCCO2 (stereo not drawn) | -2 | 5 | -4 | 4256 | 5.3 | 2 | 22
CCCc1nnc(NC(=O)C23CC4CC(CC(C4)C2)C3)s1 | -9 | 5 | -22 | 4442 | 1.7 | -3 | -11
CCn1cc(CN2CCC(n3nccc3NC(=O)c3ccccc3C)CC2)c(C)n1 | 3 | -6 | -17 | 5239 | 1.2 | -8 | 3
O=C(CN1CCN(c2ccccc2F)CC1)c1ccc(O)cc1O | -1 | -2 | -2 | 5677 | 2.8 | 0 | 4
Cc1onc(-c2c(Cl)cccc2Cl)c1C(O)c1ccc(F)cc1 (stereo not drawn) | 15 | 11 | nt | 3727 | 10 | 1 | 0
CCCC(=O)Nc1c(O)c2ccccc2[nH]c1=O | -1 | 9 | -3 | 8497 | 4.6 | 6 | -7

Molecules listed so far that contain a Cl atom:
SMILES | Mtb hypoxia inh | Mtb hypoxia inh growth | PrP UTR inh | Autofluor counter | Sa RN4220 lethal | BJeLR lethal | Sa ugtP lethal
COc1cc2c(CCNC(C)=O)c[nH]c2cc1Cl | 5 | 2 | -18 | 5862 | 5.3 | nt | -3
COc1ccc(NC(=O)COC(=O)C(CC(C)C)N2C(=O)C3CC=CCC3C2=O)cc1Cl (stereo not drawn) | 11 | 9 | -24 | 10925 | -0.9 | -4 | 11
CCOC(=O)C1=C(C)Nc2nnnn2C1c1ccccc1Cl (stereo not drawn) | nt | nt | -45 | 3626 | -6.4 | nt | -6
O=C(CCl)N(c1ccccc1)c1ccccc1 | nt | nt | -8 | 4333 | -0.6 | 21 | 13
CC(C)CNC(=O)c1ccc(Cl)c(NC(=O)COc2ccccc2)c1 | 7 | 0 | nt | nt | 7.7 | 3 | 4
CCn1nc(C)c(C(=O)Nc2cc(Oc3ccc(Cl)cc3)cc([N+](=O)[O-])c2)c1C | 9 | 5 | -11 | 19896* | 2.3 | -4 | -1
O=C(Cn1nnc(-c2ccccc2Cl)n1)N/N=C/c1ccc(-c2cccc(Cl)c2)o1 | nt | nt | -40 | 2519 | nt | 3 | nt
O=C(NC(=S)Nc1ccc2oc(=O)ccc2c1)c1ccc(-c2cccc(Cl)c2Cl)o1 | 8 | -2 | nt | nt | 6.5 | 2 | -11
CC1Cc2ccccc2N1Cc1nc2cc(Cl)ccc2c(=O)[nH]1 (stereo not drawn) | nt | nt | -12 | 3046 | -4.0 | 1 | -16
Cc1ccc2nc(Cl)c(/C=N/NC(=O)CN3CCOCC3)cc2c1 | nt | nt | -12 | 4067 | nt | -3 | nt
Cc1onc(-c2c(Cl)cccc2Cl)c1C(O)c1ccc(F)cc1 (stereo not drawn) | 15 | 11 | nt | 3727 | 10 | 1 | 0

Next part
SMILES | Mtb hypoxia inh | Mtb hypoxia inh growth | PrP UTR inh | Autofluor counter | Sa RN4220 lethal | BJeLR lethal | Sa ugtP lethal
COC(=O)C1=C(N)Oc2cc(C)n(Cc3cccnc3)c(=O)c2C1c1ccc(OC)c(OC)c1OC (stereo not drawn) | -4 | 10 | -21 | 2957 | 14 | 10 | 7
COCC(C)n1c(SCc2ccc(OC)c(F)c2)nc2ccccc2c1=O (stereo not drawn) | 2 | 5 | -4 | 4175 | 3.2 | 1 | 10
C(=NNc1nc2ccccc2[nH]1)c1ccc2c(c1)OCO2 | 3 | -1 | nt | nt | 3.3 | nt | -6
COc1ccc(NC(=O)C(=O)NCCN2CCN(C(=O)c3ccc(C)cc3)CC2)cc1 | -7 | 2 | -13 | 6103 | 1.9 | 0 | 4
O=C(COC(=O)c1ccc[nH]c1=O)NCCc1ccc(Cl)cc1Cl | -13 | 2 | -2 | 4335 | 1.0 | -14 | 5
Cc1nn(CC(O)COc2ccc3c(c2)CCC3)c(C)c1C (stereo not drawn) | nt | nt | -17 | 5028 | 1.8 | 5 | -11
O=C(CN1CCCCC1)Nc1cccc(Cl)c1 | -7 | -9 | 3 | 4052 | 2.9 | -5 | 17
CCn1cc(C(=O)Nc2ccc(OC)c(OC)c2)c2cc(OC)c(OC)cc2c1=O | 16 | 6 | -11 | 3852 | 2.8 | -6 | -4

High-throughput results (PubChem)
